# KAT2A inh: blocks human GCN5L2 histone acetyltransferase; 390,000 compounds, 0.21% hits; Potency, µM (doses to about 58.9 µM), for the others: at the highest dose activity change, negative = inhibition, hits mostly inhibitors; GCN5L2 HAT assay, ThioGlo1 CoA-SH fluorescence; AID 504327
# Target sequence (Q92830 whole entry, looked up): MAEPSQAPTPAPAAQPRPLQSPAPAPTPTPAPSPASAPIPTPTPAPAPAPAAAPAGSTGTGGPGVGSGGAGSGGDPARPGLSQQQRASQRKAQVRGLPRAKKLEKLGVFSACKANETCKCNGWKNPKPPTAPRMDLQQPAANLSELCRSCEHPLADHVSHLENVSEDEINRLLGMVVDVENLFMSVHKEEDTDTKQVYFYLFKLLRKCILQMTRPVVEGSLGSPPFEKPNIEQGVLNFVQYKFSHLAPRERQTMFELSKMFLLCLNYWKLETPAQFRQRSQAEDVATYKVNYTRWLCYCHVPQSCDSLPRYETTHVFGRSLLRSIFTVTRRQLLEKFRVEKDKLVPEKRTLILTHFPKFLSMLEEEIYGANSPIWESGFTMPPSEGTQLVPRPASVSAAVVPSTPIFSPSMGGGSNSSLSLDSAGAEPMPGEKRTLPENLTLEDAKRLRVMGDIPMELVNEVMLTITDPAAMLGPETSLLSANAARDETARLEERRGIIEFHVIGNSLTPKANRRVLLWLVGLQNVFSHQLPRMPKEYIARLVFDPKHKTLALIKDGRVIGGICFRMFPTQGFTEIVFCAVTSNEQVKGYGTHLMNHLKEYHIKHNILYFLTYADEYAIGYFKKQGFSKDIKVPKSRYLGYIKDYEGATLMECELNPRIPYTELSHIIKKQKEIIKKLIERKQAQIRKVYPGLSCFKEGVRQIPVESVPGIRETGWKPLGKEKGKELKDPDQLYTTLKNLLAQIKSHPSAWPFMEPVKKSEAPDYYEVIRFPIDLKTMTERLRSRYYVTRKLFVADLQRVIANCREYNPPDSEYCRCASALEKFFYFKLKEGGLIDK
#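 Free CoA generated was detected with ThioGlo1 (50uM) fluorescence at Ex340nm/Em540nm, read immediately and after 20 min at room temperature. Enzyme, 20 nM in HEPES pH 7.5 buffer, saw compounds 15 min before adding 75uM H3(1-25) peptide and 70uM acetyl-CoA.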
# N370S GC mod: inhibits or activates N370S mutant glucocerebrosidase | P04062 | N370S GC spleen homogenate, 4MU-glucoside fluorescence | Potency, µM (doses to about 59.4 µM), for inactives: at the top dose activity change, negative = inhibition, usual class: inhibitors | 330,000 compounds, 0.092% hits | AID 2101;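 note: 0% = full enzyme activity and -100% = no enzyme basal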
# * hit, by the source's call; u = inconclusive; x = no result given; & = joins results of further samples; [ ] = another dose, or the depositor's remark. Calls come from the whole dose curve; as a rule, active = well fitted curve in the direction sought with a large enough effect; inconclusive = small, poorly fitted or top-dose-only effect, or another doubt; inactive = no such curve, though single readings can be large; an effect the other way counts as inactive or inconclusive. Unless noted, % is set by controls: 0 for no effect and ±100 for the full control effect; potency is the fitted concentration of half-maximal effect. Only part of the results is shown, and most or all hits are left out here.
# Fields: KAT2A inh	N370S GC mod
1. Cc1ccccc1N1CCN(C(=O)c2cc(C3CC3)nn2-c2ccccc2)CC1
 : -8%	x
2. Cc1cc(C)nc(SCc2nnc(SCc3ccccc3Cl)o2)n1
 : 3%	-16%
3. CCCCOP(=O)(c1ccc(N(C)C)cc1)C(O)c1ccccc1F (stereo not given)
 : -2%	-21%[2.35 µM]
4. O=C(NCc1nnnn1-c1ccc(F)c(F)c1)c1ccc2ccccc2c1
 : 1%	-22%
5. Cc1ccc(SCC(=O)NNC(=O)c2ccccc2)c(C)c1
 : -6%	-2%
6. Cc1ccc2c(COC(=O)c3ccccc3F)cc(=O)oc2c1
 : -5%	-1%
7. Cc1cc(C)cc(N(CC(=O)NCc2ccc(F)cc2)C(=O)CCC(=O)Nc2ccccn2)c1
 : -1%	-26%
8. COc1cc(OC)cc(C(=O)NN2CCOCC2)c1
 : -2%	-7%
9. Cc1cccc(CNC(=O)CN2C(=O)C3CCCCN3c3ccc(C(=O)N4CCCC4)cc32)c1 (stereo not given)
 : -2%	x
10. Cc1ccc(CC(=O)N(Cc2ccccc2)c2ccccn2)cc1
 : 23%	2%

# Next structures:
# Fields: KAT2A inh	N370S GC mod
11. Cc1ccc(-c2nnc(CN3CCN(C)CC3)o2)cc1
 : 0%	2%
12. N#C/C(=N\Nc1ccccc1)C(=N)N1CCCCC1
 : -11%	-8%
13. CCOc1ncccc1C(=O)OCC(=O)Nc1ccc2c(c1)OCO2
 : 0%	3%
14. CN1CCN(C(=O)c2ccccc2NS(=O)(=O)c2ccc(F)cc2)CC1
 : -1%	x
15. CCN(CC)c1ccc(/C=N\N2CCN(Cc3ccc(C)cc3)CC2)cc1
 : -10%	-1%
16. CC12CCC(C(=O)NCc3ccc(F)cc3)(OC1=O)C2(C)C (stereo not given)
 : -4%	-5%
17. Cc1ccccc1Nc1ncnc2c1cnn2C
 : -7%&-4%	-3%
18. Nc1ncnc2nc(-c3ccc(N4CCOCC4)nc3)cc(-c3cccc(Br)c3)c12
 : u	-27%
19. COc1ccc2c(c1)-c1nc(NC(=O)c3cccs3)sc1CC2
 : -23%	-5%
20. COc1cc(OC)cc(C(=O)NC(=S)Nc2ccc(NC(=O)c3ccco3)cc2)c1
 : -1%	-4%

# More entries:
# Fields: KAT2A inh	N370S GC mod
21. COc1cc(/C=C2/C(=N)N3C=CSC3=NC2=O)ccc1OCCCOc1cc(C)ccc1C
 : -1%	-3%
22. O=C(Nc1ccc([N+](=O)[O-])cn1)c1cc(-c2cccc(Cl)c2)nc2ccccc12
 : 39%[activator]	6%
23. COc1cccc(/C=N/NC(=O)c2csc(-n3nc(C)cc3C(F)(F)F)n2)c1
 : 0%	-4%
24. CCOC(=O)N1CCC(NC(=O)C2CCN(S(=O)(=O)N3CCC(C)CC3)CC2)CC1
 : -11%	-12%
25. COc1ccc(CNC(=O)C2CCN(C(=O)c3sccc3-n3cccc3)CC2)cc1
 : -3%	-1%
26. O=S(=O)(Nc1cccc(-n2cnnn2)c1)c1ccc(Cl)nc1
 : -1%	-6%
27. O=C(COC(=O)c1cccc(Cl)c1)NCCN1C(=O)CSC1=O
 : 2%	12%
28. COC(=O)c1[nH]c(=O)c2ccccc2c1OCc1ccccc1
 : -2%	11%
29. Nn1c(Cc2cccc3ccccc23)nnc1SCc1ccccc1
 : -3%	8%
30. O=C(CSc1n[nH]c(-c2cccs2)n1)N1CCN(S(=O)(=O)c2ccccc2)CC1
 : -1%	3%

# Sorted by length of the SMILES (low to high): some entries from above
# Fields: KAT2A inh	N370S GC mod
17. Cc1ccccc1Nc1ncnc2c1cnn2C
 : -7%&-4%	-3%
8. COc1cc(OC)cc(C(=O)NN2CCOCC2)c1
 : -2%	-7%
12. N#C/C(=N\Nc1ccccc1)C(=N)N1CCCCC1
 : -11%	-8%
11. Cc1ccc(-c2nnc(CN3CCN(C)CC3)o2)cc1
 : 0%	2%
29. Nn1c(Cc2cccc3ccccc23)nnc1SCc1ccccc1
 : -3%	8%
5. Cc1ccc(SCC(=O)NNC(=O)c2ccccc2)c(C)c1
 : -6%	-2%
6. Cc1ccc2c(COC(=O)c3ccccc3F)cc(=O)oc2c1
 : -5%	-1%
28. COC(=O)c1[nH]c(=O)c2ccccc2c1OCc1ccccc1
 : -2%	11%
13. CCOc1ncccc1C(=O)OCC(=O)Nc1ccc2c(c1)OCO2
 : 0%	3%
26. O=S(=O)(Nc1cccc(-n2cnnn2)c1)c1ccc(Cl)nc1
 : -1%	-6%
4. O=C(NCc1nnnn1-c1ccc(F)c(F)c1)c1ccc2ccccc2c1
 : 1%	-22%
15. CCN(CC)c1ccc(/C=N\N2CCN(Cc3ccc(C)cc3)CC2)cc1
 : -10%	-1%
14. CN1CCN(C(=O)c2ccccc2NS(=O)(=O)c2ccc(F)cc2)CC1
 : -1%	x
25. COc1ccc(CNC(=O)C2CCN(C(=O)c3sccc3-n3cccc3)CC2)cc1
 : -3%	-1%
18. Nc1ncnc2nc(-c3ccc(N4CCOCC4)nc3)cc(-c3cccc(Br)c3)c12
 : u	-27%
30. O=C(CSc1n[nH]c(-c2cccs2)n1)N1CCN(S(=O)(=O)c2ccccc2)CC1
 : -1%	3%
22. O=C(Nc1ccc([N+](=O)[O-])cn1)c1cc(-c2cccc(Cl)c2)nc2ccccc12
 : 39%[activator]	6%

# (listing goes on)
# Fields: KAT2A inh	N370S GC mod
31. Cc1c(C)c2ccc(OC(C)C(=O)NC3CCN(Cc4ccccc4)CC3)cc2oc1=O (stereo not given)
 : 1%	1%
32. Cc1ccc(-c2cnc(NC(=O)CCC(=O)N(C)Cc3ccccc3)n2C)cc1
 : 20%	1%
33. CCc1nnc(N/N=C/c2ccccc2F)n1N
 : -3%	1%
34. C[C@]12CC[C@H](O)CC1=CCC1C2CC[C@@]2(C)C1CC[C@@H]2NC(=O)[C@@H](N)Cc1ccccc1 (stereo not given in full)
 : -2%	x
35. COc1ccc(NC(=O)CSc2ccc3nnc(CCNC(=O)c4ccccc4)n3n2)cc1
 : 24%	u
36. Cc1ccc(S(=O)(=O)N2CCC(C(=O)NCCN3CCCCCC3)CC2)cc1
 : 1%	-16%
37. CCOc1ccc(CCNC(=O)CS(=O)Cc2nc(-c3ccc(OC)cc3)oc2C)cc1OCC (stereo not given)
 : -2%	-9%
38. COc1ccccc1/C=C1\SC(=S)N(NS(=O)(=O)c2ccc(C)cc2)C1=O
 : 20%	-4%
39. COc1ccc(NC(=O)CCN2C(=O)C3CC=CCC3C2=O)cc1S(=O)(=O)N1CCCCC1 (stereo not given)
 : -3%	0%
40. Cc1cccc(OCCCC(=O)Nc2ccc3c(c2)OCO3)c1
 : 2%	4%

# Further entries
# Fields: KAT2A inh	N370S GC mod
41. CCc1nnc(NC(=O)c2nc3nc(C)cc(C)n3n2)s1
 : 2%	9%
42. COc1ccccc1C(CNC(=O)CNC(=O)c1ccc(Cl)c(Cl)c1)N1CCCC1 (stereo not given)
 : -3%	x
43. COc1ccccc1NC(=O)C(C)OC(=O)CCNS(=O)(=O)c1cccc(C(F)(F)F)c1 (stereo not given)
 : -4%	x
44. CC(/C=N/NC(=O)c1cc(-c2cccs2)[nH]n1)=C\c1ccccc1
 : -3%	3%
45. CSc1ccccc1NC(=O)Nc1cccc2ccccc12
 : 4%	-4%
46. CCOC(=O)c1ccc(NC(=O)CCCn2c(=O)c3cccn3c3cccnc32)cc1
 : -1%	x
47. COc1ccc(NC(=O)CSc2nc3ncccc3[nH]2)c(OC)c1
 : -5%	x
48. COc1cc(C(=O)Nc2cc(S(C)(=O)=O)ccc2Cl)ccc1OCC(=O)N1CCOCC1
 : -2%	x
49. Cc1ccnc(NC(=O)c2ccc3c(c2)C(=O)N(CC(C)C)C3=O)c1
 : -1%	-5%
50. CC(=O)c1ccc(NC(=O)c2ccc(CNc3c(N4CCCC4)c(=O)c3=O)cc2)cc1
 : -11%	3%

# Continued:
# Fields: KAT2A inh	N370S GC mod
51. Cc1ccc(SCC(=O)NC(=O)Nc2ccc3c(c2)OCCO3)c(C)c1
 : 32%[activator]	-17%
52. NS(=O)(=O)c1ccc(NC(=O)/C=C/c2cccs2)cc1
 : -20%	2%
53. O=C(NCc1ccccc1)c1ccc2nc(N3CCOCC3)sc2c1
 : -20%	-7%
54. O=C(CCN1C(=O)COc2ccccc21)NCCCN1CCN(c2ccccc2F)CC1
 : -1%	18%
55. CCOC(=O)c1[nH]c(C(=O)O)c(CCC(=O)OC)c1C
 : -6%	9%
56. C=CCc1c(C)nc(SCC(=C)C)[nH]c1=O
 : 1%	2%
57. Cc1nn(-c2ccc(Cl)cc2)c(Cl)c1/C=C(\C#N)C(N)=O
 : -2%	1%
58. O=C(CSc1ccc(F)cc1)N1CCOCC1
 : 5%	-2%
59. O=C(Cc1ccccc1)Nc1ccc(N2CCCCC2)cc1
 : 2%	-3%
60. O=C(COC(=O)Cn1nnc2ccccc21)Nc1ccccc1Br
 : -2%	2%

# Next section.
# Fields: KAT2A inh	N370S GC mod
61. Cc1cc(NC(=O)CCCN2C(=O)/C(=C/c3cccs3)SC2=S)no1
 : -2%	-1%
62. O=C(COCCOCC(=O)N(c1ccccn1)C1CCCCC1)N(c1ccccn1)C1CCCCC1
 : -2%	3%
63. CC(=O)Nc1ccc(OC(=O)c2cccnc2)cc1
 : 1%	4%
64. CC(C)(C)OC(=O)N[C@@H](COCc1ccccc1)C(=O)N[C@@H](CO)[C@H](O)[C@@H]1C[C@@H]1C(=O)NC1CCCCC1
 : -7%	1%
65. COCCn1c(SCC(=O)Nc2ccc(Cl)c(S(=O)(=O)N(C)C)c2)nc2ccccc21
 : -9%	10%
66. O=C/C=C/c1coc2ccc3ccccc3c2c1=O
 : -3%	-3%
67. CCOc1ccccc1OCCCC(=O)NC1=NCCS1
 : 2%	-6%
68. Cc1cc(C)nc(NC(N)=NC2CCCCC2)n1
 : -1%	-12%
69. CCOC(=O)N1CCC(NC(=O)c2cccn3c(=O)c4cc(Br)ccc4nc23)CC1
 : 1%	3%
70. O=C(Nc1sccc1C(=O)NCc1ccco1)c1cccnc1
 : 1%	-21%

# Part of the list above in another layout.
63. CC(=O)Nc1ccc(OC(=O)c2cccnc2)cc1
68. Cc1cc(C)nc(NC(N)=NC2CCCCC2)n1
61. Cc1cc(NC(=O)CCCN2C(=O)/C(=C/c3cccs3)SC2=S)no1
69. CCOC(=O)N1CCC(NC(=O)c2cccn3c(=O)c4cc(Br)ccc4nc23)CC1

Compound	63	68	61	69
KAT2A inh	1%	-1%	-2%	1%
N370S GC mod	4%	-12%	-1%	3%

# (list continues)
# Fields: KAT2A inh	N370S GC mod
71. CCN(CC)C(=O)Cc1cn(C)c2ccccc12
 : -6%	-11%
72. COc1ccc(N2CCN(C(CNC(=O)OCc3ccccc3)c3ccco3)CC2)cc1 (stereo not given)
 : -6%	-26%
73. O=C(Cc1cccs1)NCc1cccc(CNC(=O)Cc2cccs2)c1
 : 1%	4%
74. CC(=O)NC(NC(C)=O)c1ccc(N(C)C)cc1
 : -3%	-1%
75. CC(C)c1onc(C(=O)N2C(C)CCCC2C)c1[N+](=O)[O-] (stereo not given)
 : -4%	25%
76. COc1ccc(CN2CCN(c3ccccn3)CC2)cc1OCc1ccccc1
 : 1%	-4%
77. CC(C)(C)c1ccc(C(=O)NCC2CCCN2S(=O)(=O)c2ccccc2)cc1 (stereo not given)
 : -1%	-6%
78. COCCNC(=O)/C(C#N)=C/c1c(N2CCCCCC2)nc2ccccn2c1=O
 : -9%	u
79. COc1ccc(O)c(C(=O)c2cnc3c(c2)c(C)nn3CCO)c1
 : -6%	1%
80. O=S(=O)(NCCO)c1ccc2c(c1)Cc1cc(S(=O)(=O)NCCO)ccc1-2
 : -3%	-4%

# (next part)
# Fields: KAT2A inh	N370S GC mod
81. CC(=O)Nc1sc2c(c1C(c1ccccn1)N1CCCC1)CCCC2 (stereo not given)
 : -11%	-3%
82. CN(Cc1ccccc1)C(=O)c1[nH]cnc1C(=O)Nc1ccon1
 : -4%	x
83. C/C(=N/OC(=O)c1ccccc1Br)c1ccc(C)cc1
 : -15%	19%
84. O=C1C2CCCN2C(c2ccc(F)cc2)N1c1nccs1 (stereo not given)
 : u	2%
85. Cn1c(-c2ccccc2)c[n+]2c1-c1ccccc1C2
 : 4%	3%
86. CCOc1ccc(NCc2nnc(SCC(=O)Nc3cc(C)on3)n2-c2ccc(OC)cc2)cc1
 : 1%	0%
87. COc1cccc(NC(=O)COc2ccc(C)cc2)c1
 : -9%	8%
88. O=C(NCC(c1ccco1)N1CCc2ccccc2C1)C(=O)Nc1cc(F)ccc1F (stereo not given)
 : u	-9%
89. CCOC(=O)c1sc(SC)c2c1CCC/C2=N/OC
 : 2%	-2%
90. CCOC(=O)N1CCC(Nc2c(NCCCOC)c(=O)c2=O)CC1
 : -5%	1%
91. Cc1cccc(C(=O)Nc2ccc(C(=O)N/N=C/c3cccc(C)n3)cc2)c1
 : -3%	-2%
92. N#CCC(=O)Nc1ccc(C(=O)OCC(=O)NC(=O)Nc2ccc3c(c2)OCCO3)cc1
 : -13%	x
93. COc1ccccc1NS(=O)(=O)c1cccc(NC(=O)C(C)NC(=O)c2ccco2)c1 (stereo not given)
 : 2%	1%

# Compound activity deposited in PubChem BioAssay by National Center for Advancing Translational Sciences (NCATS).
